Bioassay records: PubChem BioAssay, Center for Chemical Genomics, University of Michigan
HIV TAR-Tat: TAR RNA-Tat peptide displacers, HIV-1, primary screen, biochemical, FRET, FAM/TAMRA-labeled Tat; HIV-1 TAR RNA, Tat peptide displacement FRET; hits give high values; z-score (concentration not given with the values); hit rate 0.6% among 100,000; AID 1259389, 2018;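 further: score is relative to mean and SD of negative controls; some compounds called inactive have numbers as strong as hits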
CDC25B-CDK2 inh: primary biochemical HTRF screen for blockers of M-phase inducer phosphatase 2 binding to CDK2/cyclin A | HTRF CDC25B-CDK2/CyclinA binding, anti-His/anti-Flag; hits give high values | AID 1259370, 2018 | P30305+P24941 | hit rate 0.72% among 94,000 | z-score (test concentration not listed);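 further: score is relative to mean and SD of negative controls; strong numbers were not always called active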
The depositor's hits bear a star; x = no result given.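 How the source made its calls: active means z-score from 3 up in half or more of its runs; inactive means the rest.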

Molecule,HIV TAR-Tat,CDC25B-CDK2 inh
CCOC(=O)c1c(C)oc2cc(Br)c(OC(C)C(=O)OC)cc12 (stereo not drawn),x,0.04
Cc1nnc2c(Nc3ccc(N4CCCCC4)cc3)nc3ccccc3n12,0.75,-0.83
CC1CSc2ccc(S(=O)(=O)NCc3cccnc3)cc2NC1=O (stereo not drawn),1.4,x
O=C(Nc1ccc(-c2csnn2)cc1)c1ccc(Cl)cc1,x,-0.45
CCCc1nc(SCc2cc(=O)n3nc(CCC)sc3n2)n[nH]1,0.46,x
COc1cc(NC(=O)NC2CCCC2)cc2sc(NS(=O)(=O)c3ccccc3)nc12,2.5,x
O=C1c2cccnc2C(=O)N1CCc1ccc(S(=O)(=O)NCc2ccco2)cc1,-0.19,x
O=C(CC1(O)C(=O)N(Cc2ccccc2Cl)c2ccccc21)c1ccncc1 (stereo not drawn),0.63,-0.95
Cc1cc(S(=O)(=O)NCCc2sc(-c3ccc(Cl)cc3)nc2C)ccc1F,-0.22,x
O=c1[nH]cc(Br)cc1[N+](=O)[O-],1.6,x
COC(=O)C1=C(C)Nc2nnnn2C1c1cc(Br)ccc1OC (stereo not drawn),-3,-0.9
CCOCCCNC(=O)Cn1nc(C)n2cccc2c1=O,2.3,-1.2
COc1cccc2c1Oc1nc(-c3cccc(O)c3)[nH]c(=O)c1C2,1.7,-1.2
COc1cc(NC(=O)NC(C)C)cc2sc(NS(=O)(=O)c3ccccc3)nc12,2.1,x
COCCCN[C@H]1CS(=O)(=O)C[C@@H]1S(=O)(=O)c1ccc(Cl)cc1,0.64,-0.68
CN1CCN(CCNC(=O)c2cc3c(=O)n(C)c4ccccc4c3n2C)CC1,-0.68,-1.9
O=C(NCCN1CCOCC1)C(=O)Nc1ccc2nc3n(c(=O)c2c1)CCCCC3,-0.5,-0.99
CCC(O)(c1ccc(F)cc1)C(CN1CCOCC1)c1ccccc1 (stereo not drawn),-0.19,-2.5
O=C(NCc1noc2ccccc12)Nc1cc(F)ccc1F,-6.5,x
C=CCNC(=O)C1=Cc2cc(Cl)ccc2OC=C1,-0.32,-1.3
Cc1cc(=O)n2nc(NC(C)C(=O)N3CCCCC3)sc2n1 (stereo not drawn),1.6,-0.49
O=C(c1ccc2c(Cl)c3c(nc2c1)CCC3)N1CCCCC1,1.7,-0.23
Cc1ccc(C2CC(=O)C3=C(C2)Nc2ccccc2NC3c2coc3ccc(Cl)cc3c2=O)cc1 (stereo not drawn),1.2,-1.3
O=C(Cc1nnc(NC(=O)Nc2ccc(Cl)cc2Cl)s1)Nc1ccccc1,x,-2.5
O=C1CC(c2cccc(Cl)c2)Cc2nc(N3CCc4ccccc4C3)ncc21 (stereo not drawn),13,-1.4
CCN(CC)CCNC(=O)c1cnc(N2CCOCC2)nc1C,0.78,x
O=C(Nc1ccc2c(c1)OCCO2)c1csc(-c2cccs2)n1,x,-1.4
CC(C)c1nc2sc3c(NCCO)ncnc3c2c2c1CCCC2,-0.64,0.04
Cc1ccc(Cl)c2c1NC(=O)C2(O)CC(=O)c1ccccc1 (stereo not drawn),0.17,17*
Cc1nn(CCCC(=O)NCc2ccc3c(c2)OCO3)c(=O)c2cc3occc3n12,0.73,-1.4
Cc1ccc(-n2c(N)c(C(N)=O)sc2=S)cc1C,1.1,x
CCN(CC)c1ccc(NS(=O)(=O)c2ccc3c(c2)NC(=O)CCS3)c(C)c1,0.51,x
O=c1[nH]c(=S)ccn1-c1nc(-c2ccccc2)sc1-c1ccccc1,x,-2.2
COc1ccc(C2CC(c3cccs3)=Nc3ccccc3S2)c(Cl)c1OC (stereo not drawn),x,-1.1
COc1ccc(/C=N/N=C(\N)SCc2ccc(F)cc2)cc1,x,0.61
CC1CCCC(C)N1CCCNC(=O)Cn1c(=O)c2cccn2c2cccnc21 (stereo not drawn),0.12,x
COc1cccc2c1OCC(C(=O)N1CCOCC1)=C2,0.79,x
COc1ccc(OC)c(NC(=O)N2CCCN(c3nc4cc(F)ccc4n4cccc34)CC2)c1,0.01,x
Cc1ccc2nc(Cl)c3cc(C(=O)N(C)Cc4ccco4)sc3c2c1,x,-0.73
CCc1nnc(SCC(=O)N(CC)c2ccccc2)c2cc3sccc3n12,4.5,x
CC(C)(C)C(=O)N1N=C(c2cccc(NS(C)(=O)=O)c2)CC1c1ccc(F)cc1 (stereo not drawn),x,-1.8
O=C(CSc1nnc(-c2cccs2)o1)N1CCN(c2ccccc2)CC1,x,-2.7
COc1cc(NC2=C(c3ccccc3)C(=O)c3ccccc32)cc(OC)c1,0.21,-0.9
Cc1ccc(S(=O)(=O)c2nnn(-c3ccc(C(C)C)cc3)c2N)cc1,-0.93,-0.4
COc1cccc(CNc2nc3ccccc3c3nc(-c4cccnc4)nn23)c1,x,-1.1
CCC1CCc2[nH]c(=S)c(C#N)c(C(F)(F)F)c2C1 (stereo not drawn),-0.02,-0.62
CCn1cc(C2=NOC(C(=O)N3CCN(C(=O)c4ccco4)CC3)C2)c(C)n1 (stereo not drawn),-0.95,-2.9
CSc1nc(=O)c2c(n1C)NC(=O)CC2c1cccc(O)c1 (stereo not drawn),1.3,-1.3
CC1CC(C)CN(S(=O)(=O)c2cc3c4c(c2)CC(=O)N4CCC3)C1 (stereo not drawn),1.7,x
COc1ccc(Oc2c(C(F)(F)F)oc3cc(OC(C)C(=O)OC(C)C)ccc3c2=O)cc1 (stereo not drawn),2.2,0.15
CC1CSc2ccc(S(=O)(=O)Nc3cccc(Br)c3)cc2NC1=O (stereo not drawn),1.8,x
Cc1cc(C)cc(NC(=O)c2cn3c4c(ccc(Cl)c4c2=O)OC(C)C3)c1 (stereo not drawn),-2.1,x
COCCn1nnc2c(sc3nc(C)cc(COC)c32)c1=O,1.4,-0.37
O=C(NCCCN1CCc2ccccc2C1)Nc1ccc(Br)cc1,-2,9.2*
O=C(CCCN1C(=O)c2cccnc2Oc2ccc(Cl)cc21)N1CCCC1,0.33,x
Cc1ccc(S(=O)(=O)c2nnn3c2nc(NCCCN2CCCC2=O)c2ccccc23)cc1C,-0.07,x
CCC(C)Sc1nc2c([nH]c3ccccc32)c(=O)n1C (stereo not drawn),3.1,x
COc1cc(Cl)c(NC(=O)CCC(=O)N2CCCn3nc(-c4cccn4C)cc32)c(OC)c1,0.22,x
C#CCSc1nnc(-c2ccco2)o1,x,-1.4
O=C(Cn1cnc(S(=O)(=O)N2CCOCC2)c1)N1CCN(c2ccc(Cl)cc2)CC1,-0.86,x

Of the compounds above, these contain an aryl thioether with sulfur outside any ring.
Molecule,HIV TAR-Tat,CDC25B-CDK2 inh
CCCc1nc(SCc2cc(=O)n3nc(CCC)sc3n2)n[nH]1,0.46,x
CCc1nnc(SCC(=O)N(CC)c2ccccc2)c2cc3sccc3n12,4.5,x
O=C(CSc1nnc(-c2cccs2)o1)N1CCN(c2ccccc2)CC1,x,-2.7
CSc1nc(=O)c2c(n1C)NC(=O)CC2c1cccc(O)c1 (stereo not drawn),1.3,-1.3
CCC(C)Sc1nc2c([nH]c3ccccc32)c(=O)n1C (stereo not drawn),3.1,x
C#CCSc1nnc(-c2ccco2)o1,x,-1.4

Following part
Molecule,HIV TAR-Tat,CDC25B-CDK2 inh
COc1ccc(Nc2nc(NCc3ccco3)nc3c2cnn3C)cc1Cl,1.9,x
Cn1c(=O)n(C)c2cc(C(O)COc3ccc(CNCCc4ccc(F)cc4)cc3)ccc21 (stereo not drawn),-0.93,-2.5
COc1ccc(S(=O)(=O)n2cnc(C)c2)cc1OC,0.59,0.23
CCCCN1C(=O)C(NC(C)=O)c2cc(Cl)ccc21 (stereo not drawn),-7.4,0.19
N#Cc1cccc(Oc2ccc(S(=O)(=O)NC3CCS(=O)(=O)C3)cc2)c1Cl (stereo not drawn),x,-1.2
Cc1ccc2nc(-c3ccc(O)cc3)[nH]c2c1,1.6,-1.8
O=S(=O)(NCCc1csc(-c2cccc(F)c2)n1)c1ccccc1Cl,1.5,x
O=C(NCc1ccccn1)Nc1ccc2c(c1)N(Cc1ccccc1)C(=O)c1ccccc1S2,0.89,0.04
CN1C(=O)c2cc(NC(=O)COc3ccc(Cl)cc3)ccc2N2CCN=C12,1.4,x
COc1ccc(Nc2c(-c3ccc(OC)cc3)nc3ncccn23)cc1,1.9,-1.1
CC1=C(C(=O)OCCc2ccccc2)C(c2ccc(C)cc2)C2=C(CCCC2=O)N1 (stereo not drawn),2.2,-0.76
COc1ccc(Cl)cc1C(=O)Nc1c(C)nc2cc(C)ccn2c1=O,1.6,x
CC1=C(c2ccc(F)cc2)S(=O)(=O)N=C1N(C)Cc1ccccc1,1.1,x
O=C(CCC(=O)N1CCOc2ccc(Cl)cc21)NCC1CCCO1 (stereo not drawn),0.77,-3.3
Brc1cccc(CN2CCc3nc(Nc4ccc5c(c4)OCCO5)ncc3C2)c1,0.15,x
COC(=O)c1ccc(C2c3c(-c4ccc(C)cc4)n[nH]c3C(=O)N2c2ccc(C(=O)O)cc2)cc1 (stereo not drawn),-0.64,x
CCOc1ccc(-c2cc(OC(=O)c3ccc(OC)cc3)c3c(C)oc(C)c3c(=O)c2)cc1,2.4,-1.1
COc1ccc(OC(C)=O)c(C2OC(c3cc(C)nc4ccccc34)=NN2C(C)=O)c1 (stereo not drawn),1.6,x
O=C1CC(c2nc3ccccc3n2CCN2CCOCC2)CN1c1ccccc1 (stereo not drawn),0.52,1.1
Cc1ccc2onc(CNC(=O)Nc3cccc(C)n3)c2c1,-1.1,x

Compound profiles, as listed above. Values in the order: HIV TAR-Tat | CDC25B-CDK2 inh
Entry for CC1=C(C(=O)OCCc2ccccc2)C(c2ccc(C)cc2)C2=C(CCCC2=O)N1 (stereo not drawn) = 2.2 | -0.76
Entry for N#Cc1cccc(Oc2ccc(S(=O)(=O)NC3CCS(=O)(=O)C3)cc2)c1Cl (stereo not drawn) = x | -1.2

(next part)
Molecule,HIV TAR-Tat,CDC25B-CDK2 inh
O=C(O)c1ccc(-c2ncccc2[N+](=O)[O-])cc1,1.1,0.77
O=C(Nc1ncccn1)c1c(O)c2ccccc2[nH]c1=O,-0.7,-2.1
O=C1CCCc2c1cnn2-c1nc2ccccc2s1,0.45,-0.64
COC(=O)CSc1nc2c(cc1C#N)CCC2,-0.19,-0.75
O=S(=O)(Cc1ccccc1F)c1oc(-c2cccs2)nc1S(=O)(=O)c1ccc(F)cc1,0.67,-3.7
COC(=O)c1c(SCC(=O)Nc2ccccc2F)[nH]c2ccccc2c1=O,0.86,x
C[C@@H]1CC[C@@]23CCC4(C)[C@@](C=CC5[C@@]6(C)CC[C@H](O)C(C)(C)C6CC[C@]54C)(OC2=O)C3[C@H]1C (stereo partly drawn),1.2,x
C=Cc1ccc(Cn2ccn(CCc3ccccc3)c(=O)c2=O)cc1,1.6,-1.6
CN(C)CCCOc1nc2c(c(=O)n(C)c(=O)n2C)n1C,1.1,-2.5
Cc1nn(CCCC(=O)NCc2cccs2)c(=O)c2c1sc1ccccc12,1.4,-1.3
COc1ccc(OC)c(-n2cc3c(c2-c2cccc(Br)c2)c(=O)n(C)c(=O)n3C)c1,2.2,-1.9
CCN(CC)CCCNc1nc(-c2ccccc2)nc2ccccc12,0.26,-0.62
O=C(O)c1cc(=O)c2c(OCC(O)COc3cccc4oc(C(=O)O)cc(=O)c34)cccc2o1,2.5,x
COc1ccc(Nc2ncnc3c2cnn3C)cc1Cl,0.55,x
O=C(CSCC(=O)Nc1ccc(OC(F)(F)F)cc1)NNC(=O)Nc1ccccc1,x,-0.6
CCOC(=O)N1CCN(C(=O)C2c3cc(OC)c(OC)cc3C(=O)N(C)C2c2cccs2)CC1 (stereo not drawn),-3.2,-0.01
CCc1ccc(C2C3=C(CCCC3=O)Nc3c2c(=O)n(C)c(=O)n3C)cc1 (stereo not drawn),0.46,-0.19
CCOCCCNC(=O)c1oc2ccc3c(c2c1C)C(O)CC(C)(C)O3 (stereo not drawn),0.28,x
Oc1ccc(Br)cc1CNc1cccc(C(F)(F)F)c1,x,-0.63
O=C(CN1C(=O)c2cccnc2Sc2ccccc21)NCc1cccs1,0.23,x

Copied from the list.
COc1cccc2c1Oc1nc(-c3cccc(O)c3)[nH]c(=O)c1C2 – HIV TAR-Tat = 1.7
CN1C(=O)c2cc(NC(=O)COc3ccc(Cl)cc3)ccc2N2CCN=C12 – HIV TAR-Tat = 1.4
Cc1nn(CCCC(=O)NCc2ccc3c(c2)OCO3)c(=O)c2cc3occc3n12 – HIV TAR-Tat = 0.73
O=C(CCCN1C(=O)c2cccnc2Oc2ccc(Cl)cc21)N1CCCC1 – HIV TAR-Tat = 0.33
COc1ccc(Nc2nc(NCc3ccco3)nc3c2cnn3C)cc1Cl – HIV TAR-Tat = 1.9

Next section:
Molecule,HIV TAR-Tat,CDC25B-CDK2 inh
COC(=O)Cc1c(O)c2ccccc2[nH]c1=O,1.4,-2.5
CC(N)(C(=O)O)c1ccc(C(=O)O)cc1 (stereo not drawn),x,2.2
C[C@H]1CCCC(=O)CCC/C=C/c2c(O)cc(O)cc2C(=O)O1,3.4,x
Cc1ccc(OCc2nnc(NC(=O)Nc3ccc(F)cc3)s2)cc1C,x,-1.7
O=C(Nc1cccc(-c2noc(C3CC3)n2)c1)C1CC(=O)N(c2ccccc2)C1 (stereo not drawn),0.86,x
O=C(CCc1nc(-c2ccc(S(=O)(=O)N3CCOCC3)cc2)no1)N1CCCC1,1.9,x
O=C(C1CCN(S(=O)(=O)c2ccc3[nH]c(=O)ccc3c2)CC1)N1CCc2ccccc2C1,2.1,x
NC(=O)c1cc(S(=O)(=O)N2CCc3ccccc32)cs1,1.5,x

An unsorted share of the library (roughly 0.87% active in at least one column).
